Rango dissoc inh: inhibition of RanGTP-driven Rango-importin beta dissociation; O95149+P62826; Biochemical FRET Rango-importin beta, RanGTP-induced dissociation; Potency, µM (highest dose often 46.1 µM), for inactives: top-dose activity change, negative = inhibition; actives 0.071% (n = 340,000); AID 540253; active means falling FRET ratio curve, often poorly fitted, with flat reads before Ran was added; inconclusive means other falling curves, or compound fluorescence or quenching; inactive means flat or rising ratio curve;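 note: potency is the fitted concentration of half-maximal effect; % of control where 0% means no effect; nearly all actives have a fitted effect of over 45% in size; -100% = wells without RanGTP and RCC1; the record marks most hits as doubtful in a second field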
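Recombinant Rango FRET biosensor (EYFP–snurportin 1 IBB–cerulean CFP10) at 0.1 uM premixed with 0.25 uM importin beta in PBS, 1 mM DTT, 0.02% Tween-20, 0.1% BSA. Compound added 5 min; RanGTP-RCC1 (0.6 uM Ran, 2 mM GTP, 0.2 uM RCC1) then triggers release, read at 45 min.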
Rango complex inh: inhibitors of Rango-importin beta complex formation; Potency, µM (highest dose often 92.2 µM), for the others: at the top dose inhibition of complex formation; Q14974; Rango CFP/YFP FRET sensor + importin beta, 45 min; actives 0.031% (n = 340,000); active = rising FRET ratio curve, often small or poorly fitted; inconclusive = mostly compound fluorescence or quenching in the first reads; inactive = flat curves in all reads;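 note: potency is the fitted concentration of half-maximal effect; 0% = DMSO wells and 100% = buffer wells lacking importin beta; nearly all actives have a fitted effect of over 15% in size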
Target sequence (Q14974 whole entry, looked up): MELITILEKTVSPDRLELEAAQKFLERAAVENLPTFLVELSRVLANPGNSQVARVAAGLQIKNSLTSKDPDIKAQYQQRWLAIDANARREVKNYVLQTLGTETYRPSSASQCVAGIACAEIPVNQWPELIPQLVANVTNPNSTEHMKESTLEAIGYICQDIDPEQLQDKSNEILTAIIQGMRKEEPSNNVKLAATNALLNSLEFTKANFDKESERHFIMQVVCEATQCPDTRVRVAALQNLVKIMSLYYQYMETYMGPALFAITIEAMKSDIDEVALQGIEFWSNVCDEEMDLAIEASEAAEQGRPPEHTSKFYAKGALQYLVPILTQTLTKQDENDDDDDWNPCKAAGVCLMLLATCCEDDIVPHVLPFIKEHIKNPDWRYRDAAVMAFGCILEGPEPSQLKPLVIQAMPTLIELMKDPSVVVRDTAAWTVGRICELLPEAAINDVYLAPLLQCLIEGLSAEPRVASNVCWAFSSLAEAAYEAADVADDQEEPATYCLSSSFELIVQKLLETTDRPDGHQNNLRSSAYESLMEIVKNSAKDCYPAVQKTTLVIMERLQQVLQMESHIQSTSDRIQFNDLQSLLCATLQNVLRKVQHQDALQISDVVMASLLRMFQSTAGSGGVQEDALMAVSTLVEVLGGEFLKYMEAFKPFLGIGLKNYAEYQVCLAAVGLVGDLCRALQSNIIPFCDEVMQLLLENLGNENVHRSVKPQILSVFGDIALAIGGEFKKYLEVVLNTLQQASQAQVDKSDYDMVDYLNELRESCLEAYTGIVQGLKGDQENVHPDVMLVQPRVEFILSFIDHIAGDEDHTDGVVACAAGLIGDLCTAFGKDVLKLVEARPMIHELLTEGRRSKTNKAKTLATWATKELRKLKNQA
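FRET biosensor (snurportin 1 IBB flanked by EYFP and cerulean), 50 nM, with compound 5 min, then 0.125 microM importin beta in PBS, 1 mM DTT, 0.02% Tween-20, 0.1% BSA. CFP/YFP ratio read after 45 min at room temperature; pre-read flags interference.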
GLA inh pH 4.5: blocks human alpha-galactosidase A at pH 4.5 | purified enzyme, 4-MU-alpha-Gal fluorescence, pH 4.5 | 230,000 tested, under 10 active | AID 1467 | activity change, negative = inhibition, % at 105 µM; inconclusive = small, poorly fitted or top-dose-only inhibition, or a rising curve; inactive = flat fitted curve, though single readings scatter; no compound was filed as active;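 note: 0% = full activity with enzyme and -100% = basal without enzyme; dose as in the result columns while the protocol names 77 µM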
miR-21 reporter: miR-21 reporter, rising signal; HeLa miR-21 FLuc reporter, luciferase, 48 h; Potency, µM (series often up to 38.3 µM), inactives show at the top dose reporter change, positive = more light; 340,000 tested, under 10 active; AID 2288; active = well fitted rising curve with a large enough effect; inconclusive = small, poorly fitted or top-dose-only effect; inactive = no such curve, though single readings can be large or run the other way;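 note: % of control where 0% means no effect; miR-21 action dims this reporter so a rising signal means less miR-21 action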
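HeLa miR-21-FLuc reporter line, endogenous miR-21; 2000 cells/well in DMEM/10% FBS; compound titration up to ~40uM final, 48 h, 37 degree Celsius; luciferase detection reagent, 15 min lysis, CCD luminescence.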
Starred values were filed as active, the others as inactive; ? = inconclusive; · = no result given; & = joins results of further samples. An excerpt, so the mix of outcomes need not match the whole.

SMILES	Rango dissoc inh	Rango complex inh	GLA inh pH 4.5	miR-21 reporter
Cc1nc(SCC(=O)Nc2c(C)n(C)n(-c3ccccc3)c2=O)c(C#N)c(C)c1C	17.8%	0.9%	·	·
O=C(Nc1cc(S(=O)(=O)N2CCCCC2)ccc1Cl)C1COc2ccccc2O1 (stereo not given)	4.1%	-1.2%	·	·
COc1ccc(CN2C(=NC(=O)CCc3ccccc3)SC3CS(=O)(=O)CC32)cc1 (stereo not given)	7.5%	3.2%	·	-0.5%
Cc1ccc(S(=O)(=O)N2CCN(CC(=O)N/N=C\c3ccncc3)CC2)cc1	4.2%	-4.7%	-9.6	-1.8%
Cc1oc(-c2ccccc2F)nc1CN1CCC(C(=O)NCc2ccco2)CC1	-3.0%	-0.2%	-8.9	-2.2%
S=c1[nH]nc(-c2ccncc2)n1/N=C/c1ccccc1	-3.2%	3.5%	4.9	-5.2%
Cc1ccc(NC(=O)c2ccc3nccnc3c2)c(C)c1	-7.6%	4.7%	·	-31.1%
CCOC(=O)C1CCN(C(=O)c2ccccc2Oc2ccccc2)CC1	-11.2%	-1.4%	4.9	-7.0%
CN1C(=O)C(C(=O)NC(C)(C)C)C2c3ccccc3OC13CCCCC23 (stereo not given)	-12.5%	1.6%	2.1	-0.3%
Cc1oc2cc(OCc3cnn(-c4ccccc4)c3)ccc2c(=O)c1Oc1ccccc1F	0.3%	4.4%	-4.4	-9.9%
Cc1cc(CN(C)C(=O)CCc2nnc(Cc3cccc(C(F)(F)F)c3)o2)on1	4.5%	-2.0%	2.2	-48.0%
CCn1c(COc2ccccc2C)nnc1SCC(=O)OC	-16.2%	3.4%	-5.1	-6.3%
Cc1ccc(S(=O)(=O)N2CCCC(C(=O)Nc3cccnc3)C2)cc1 (stereo not given)	2.2%	-3.3%	2.9	4.1%
Cc1ccc(C(=O)N(Cc2sccc2C)C2CCS(=O)(=O)C2)cc1 (stereo not given)	-1.2%	-5.8%	·	-2.3%&-2.0%
COc1ccc(C(CNC(=O)Cc2ccc3ccccc3c2)N(C)C)cc1 (stereo not given)	0.3%	-1.3%	·	-6.7%
O=C(CSc1ncn[nH]1)OCN1C(=O)c2ccccc2C1=O	0.6%	1.0%	4.9	-1.1%
O=C(CSc1ncccn1)Nc1cc(Cl)ccc1[N+](=O)[O-]	17.1%	-1.4%	-4.6	-13.4%
CC(C(=O)Nc1cccc([N+](=O)[O-])c1)N(c1ccccc1)S(C)(=O)=O (stereo not given)	5.9%	0.7%	3.2	-5.9%
CCOC(=O)c1ccc(NC(=O)/C=C/c2cccs2)cc1	-4.7%	-2.2%	-10.6	-19.6%
CC1(C)c2ccccc2-n2c1cc1oc(=O)cc(O)c1c2=O	32.1%	0.0%	0.4	-0.1%
O=C(C1CCN(S(=O)(=O)Cc2ccccc2)CC1)N1CCCc2ccccc21	5.0%	-0.4%	-9.6	-4.9%
CCOC(=O)C(=O)Nc1ccc2c(c1)OCO2	0.1%	3.1%	2.4	-10.5%
O=C(O)c1ccc(S(=O)(=O)N2CCN(c3ccccn3)CC2)cc1	-6.4%	1.4%	·	-2.9%
O=C1C(c2ccncc2)=C(O)c2ccccc21	0.2%	0.5%	-4.9	-0.8%
CC(C)c1ccc(CNC(=O)CSCC(=O)Nc2ccc3ccccc3c2)cc1	12.2%	-7.4%	-4.7	-1.4%
Nc1ncnc2c1ncn2[C@H]1CC[C@@H](CO)O1	-3.9%	-2.2%	-9.8	·
Cc1cc2c(c(/C=C/C(=O)c3ccccc3)c1)OC1(C=C2)Oc2ccccc2C(=O)N1C (stereo not given)	3.4%	-3.0%	-10.6	-13.9%
Cc1nc(NC(=O)COC(=O)CCS(=O)(=O)c2ccccc2Cl)c(Cl)cc1Cl	-3.8%	-1.1%	-2.1	-7.5%
C[C@H](NC(=O)CCn1nnc2ccccc2c1=O)C(=O)O	1.2%	-0.6%	-6.6	1.4%
CSCC(=O)NC1CCCc2c1cnn2-c1cc(F)cc(F)c1 (stereo not given)	3.5%	-2.3%	·	-12.4%
Cc1ccc(C)c(NC(=O)c2cnn3ccccc23)c1	10.6%	2.8%	-7.2	-38.8%
Cc1ccc(CNC(=O)Nc2ccc(F)cc2F)n1C	-11.3%	?	·	-28.8%
CC1=C(c2ccccc2)SC2=NCCN21	-0.8%	-2.4%	·	-1.2%
Cc1onc(-c2ccccc2)c1C(=O)Nc1ccncc1	7.4%	-0.4%	3.5	4.4%
COc1ccc(-c2csc(NC3OC(=O)c4ccccc43)n2)cc1 (stereo not given)	-2.5%	0.3%	-8.2	26.7%
COc1ccccc1C(=O)OCC(=O)Nc1cc(S(=O)(=O)N2CCOCC2)ccc1N1CCCC1	15.9%	-2.5%	8.2	0.1%
COc1ccc(OC)c(C2CC(=O)N3CN(c4cccc(Cl)c4C)CSC3=C2C#N)c1 (stereo not given)	?	?	-14.7	-0.7%
CCCCC(=O)N(Cc1ccc(F)cc1)C1CCS(=O)(=O)C1 (stereo not given)	6.7%	-0.2%	-1.5	-3.7%
CCOCCCNS(=O)(=O)c1cc2[nH]c3c(c2cc1C)C(=O)CC(C)(C)C3	-21.7%	1.3%	·	8.9%
Cc1ccc(S(=O)(=O)CCc2nnc(NC(=O)c3cnccn3)s2)cc1	8.8%	4.4%	-0.2	-7.1%
Cc1ccccc1C(=O)c1c[nH]c(C(=O)NCC2CCCO2)c1 (stereo not given)	-10.3%	0.4%	13.6	-12.4%
O=C(C1=COCCO1)N1CCN(C(c2ccccc2)c2ccccc2)CC1	-2.8%	2.3%	-1.9	-2.5%
COCCCNC(=O)CS(=O)(=O)Cc1nc(-c2cccc(OC)c2)oc1C	-7.1%	-2.8%	1.7	-1.2%
Cc1cc2ccccc2n2c(SCC(=O)N3CCc4ccccc4C3)nnc12	6.0%	3.7%	-5.1	0.6%
COc1cccc(/C=C2\N=C(c3c(-c4ccccc4)noc3C)OC2=O)c1OC	-2.5%	3.6%	2.8	-2.7%
O=C1Nc2ccccc2Nc2ncccc21	-3.2%	0.2%	-0.1	-1.8%
O=C(Cn1cnc2c(OCc3ccccc3)ncnc21)NCc1ccccn1	0.6%	-1.7%	·	·
CN(C=C1C(=O)CC(C)(C)CC1=O)CCN1CCNCC1	-14.7%	1.3%	-2.9	-4.7%
NS(=O)(=O)c1ccc(CNC(=O)c2ccc(Cl)c([N+](=O)[O-])c2)cc1	-4.0%	0.8%	-12.3	2.9%
CN(C(=O)COC(=O)c1ccccc1SCC(=O)N1CCCC1)C1CCS(=O)(=O)C1 (stereo not given)	-2.7%	-4.2%	·	-1.4%
COc1ccc(C(=O)Nc2ccccc2C(N)=O)cc1	-14.1%	-1.2%	2.0	-49.9%
COC(OC)C(C)NC(=O)NC(=O)c1ccccc1Cl (stereo not given)	-8.0%	4.1%	0.0	-1.2%
O=C(O)c1ccc(NC(=O)c2cn(-c3ccccc3)nc2-c2ccc(Cl)cc2)cc1	18.8%	1.7%	5.9	-25.4%
Cc1[nH]c(=O)[nH]c(=O)c1S(=O)(=O)N1CCCC(C(=O)NCc2ccccc2Cl)C1 (stereo not given)	-7.3%	0.1%	4.1	-7.5%
COc1ccc(CNC(=O)c2c(O)c3cccc4c3n(c2=O)CCC4)cc1	4.1%	2.2%	1.8	0.1%
Cc1c(NC(=O)C(C)N2C(=O)C3C4C=CC(C4)C3C2=O)c(=O)n(-c2ccccc2)n1C (stereo not given)	0.2%	-2.7%	-3.2	-1.5%
CC1CCC(NC(=O)CCCCn2c(=O)[nH]c3ccsc3c2=O)CC1 (stereo not given)	-13.6%	4.2%	·	2.3%
COc1cc(C(=O)NNC(=O)COc2ccc(C)cc2)ccc1OCC(=O)N1CCOCC1	-2.8%	0.1%	·	·
COC(=O)c1c(C(=O)OC)c(-c2cccc(Cl)c2)n2c1CS(=O)C2 (stereo not given)	-0.7%	-4.6%	4.0	4.7%
COc1cc2c(cc1OC)C1CC(=O)C(CC(C)C)CN1CC2 (stereo not given)	4.3%	?	·	-0.7%

Going on with the list:
SMILES	Rango dissoc inh	Rango complex inh	GLA inh pH 4.5	miR-21 reporter
O=C(CSc1nnc(-c2ccccc2)o1)n1c2c(c3ccccc31)CCCC2	·	·	2.2	2.6%
Cc1ccc2nc(CCc3nc4ccc(C)cc4[nH]3)[nH]c2c1	-6.3%	1.7%	·	3.1%
O=S(=O)(c1ccc(Oc2ccc(F)c(Cl)c2)nc1)N1CCOCC1	-7.1%	-0.6%	·	·
Cc1sc2nc(CN3CCC(C)CC3)nc(Cl)c2c1C	·	·	-4.2	-9.7%
O=C(CS(=O)CC(=O)Nc1cccnc1)Nc1ccc(F)cc1 (stereo not given)	-4.2%	-2.3%	·	3.1%
CC(NC(C)c1ccccc1Cl)C(=O)Nc1cccc(S(=O)(=O)N2CCCCC2)c1 (stereo not given)	-8.6%	0.4%	·	·
Cc1nnc(NC(=O)CN2CCN(Cc3c(Cl)cccc3Cl)CC2)s1	-10.8%	-2.3%	·	-5.5%
Cc1onc(-c2c(F)cccc2Cl)c1C(=O)N=C(N)N1CCCC1	10.1%	-5.2%	-6.2	0.1%
CCOc1ccc(NC(=O)COC(=O)CC2CC3CCC2C3)cc1 (stereo not given)	7.1%	-3.5%	·	·
COc1ccc(CNC(=O)c2cc3ccccc3oc2=O)cc1	-3.6%	-3.8%	·	-3.0%
O=C(Cc1ccc([N+](=O)[O-])cc1)Nc1ccon1	?	?	·	-0.1%
CC(CN1C(C)CCCC1C)OC(=O)c1ccc(F)cc1 (stereo not given)	2.0%	2.8%	·	-1.1%
CN(CC(=O)N1CCCCCC1)S(=O)(=O)c1cccc2cccnc12	-2.1%	-3.6%	-1.4	-1.6%
O=C(NNC(=O)c1cccnc1SCc1cccc([N+](=O)[O-])c1)c1ccccn1	1.2%	2.7%	-13.6	5.4%
CNc1cc(NS(=O)(=O)c2ccc(N)cc2)nc(NC)n1	-2.4%	-0.4%	3.2	·
Cc1ccc(CN(C)C(=O)C2CCC(=O)N(CCc3ccccc3)C2)o1 (stereo not given)	2.8%	?	·	-34.0%
O=C(CSCc1cccc(Br)c1)N1CCOCC1	0.6%	-0.4%	1.7	-40.0%
CCN(CC)c1ccc(C(=O)NNC(=O)CNC(=O)c2cccs2)cc1	4.8%	3.2%	·	·
CCCc1nc2ccccc2n1CCc1ccccc1	-0.6%	5.0%	0.4	-8.2%
COC(/C=C/Nc1ccc(Cl)cc1)=C(C#N)C#N	-1.4%	-1.3%	1.6	1.2%
O=C(Cc1cccs1)N/N=C/C=C/c1ccco1	-15.3%	?	7.2	-55.9%
CS(=O)(=O)c1ccc(-n2nnc3ccccc32)c([N+](=O)[O-])c1	0.1%	0.1%	·	-6.7%
COc1ccc(C(=O)Nc2nc3c(s2)CCCC3)cc1S(=O)(=O)N1CCCc2ccccc21	-8.0%	-0.5%	-9.1	24.0%
COc1ccc(NS(=O)(=O)c2cccc(C(=O)NCC(c3cccs3)N3CCOCC3)c2)cc1 (stereo not given)	21.9%	-2.4%	·	·
Cc1ccc(NC(=O)c2cccc3c2C(=O)N(C2CCCCC2)C3)c(Cl)c1	6.7%	-0.5%	·	-0.3%
